Screens from PubChem.
CapD inh = CapD enzyme inhibition; purified CapD enzyme, fluorescence intensity read-out; stronger effect = lower value; some hits fall short of the stated cut; z-score (test concentration not listed); 0.23% of 140,000 active;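 active means z-score under -4 in either of two replicates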;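 further: stock transfer was 100 nL into about 40 µL; score is relative to mean and spread of the plate; one replicate is shown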
AID504770 = E. coli YBA685 growth inhibition, screen for V. cholerae RctB inhibitors; E. coli YBA685 rctB-dependent plasmid, OD600 growth, 3 h; stronger effect = lower value; z-score (concentration not given with the values); 0.27% of 130,000 active; AID 504770;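 active means z-score under -2 on both plates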;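 further: wells of about 30 µL received 100 nL stock; score is relative to mean and SD of the test wells; the first replicate is given; strong numbers were not always called active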
Starred values were filed as active, the others as inactive; & = joins results of further samples.

For Cn1c(CNC(=O)C(C)(C)C)nc2ccccc21 the results were CapD inh -0.7 and AID504770 2.9.
N#CCC(=O)NNC(=S)NCC1CCCO1 (configuration not stated) was read as CapD inh -0.57.
`CC(C)OC(=O)Cn1nc(C(F)(F)F)c2c1CCCC2` gave CapD inh -0.015 and AID504770 -0.15.
Screening COC(=O)c1ccc2nc(NC(=O)c3ccco3)sc2c1 returned CapD inh 1.3 and AID504770 -1.5.
For CSc1ncc(-c2ccc(Cl)cc2)[nH]1 the results were CapD inh 1.1 and AID504770 -0.8.
For O=S(=O)(c1cc(Cl)ccc1Cl)N1CCCCC1 the results were CapD inh -0.005&-0.21 and AID504770 -1.6.
For COc1cccc(COC(=O)N2CCN(Cc3ccc(OC)c(OCc4ccccc4)c3)CC2)c1 the results were CapD inh -0.075.
Screening CCC(=O)Nc1ccc(-c2cc3ccccc3oc2=O)cc1 returned CapD inh 68 and AID504770 -0.55.
For COc1ccc(CNS(=O)(=O)c2ccc3[nH]cc(C(=O)O)c(=O)c3c2)c(OC)c1 the results were CapD inh -0.89 and AID504770 0.75.
`CS(=O)(=O)c1ccc(S(=O)(=O)N2CCN(c3ccc(C(F)(F)F)cc3)CC2)cc1` gave CapD inh -0.49.
Screening CN(C)CCOC(=O)c1c[nH]c2ccccc12 returned CapD inh -0.18 and AID504770 -0.5.
For O=c1[nH]c(=O)n(-c2ccc(Cl)cc2)c(O)c1/C=N/n1cnnc1 the results were AID504770 -0.25.
`O=C1C2C3C=CC(C3)C2C(=O)N1c1ccc(S(=O)(=O)c2ccc(N3C(=O)C4C5C=CC(C5)C4C3=O)cc2)cc1` (configuration not stated) gave CapD inh -0.11.
Screening CC(C)CN=CC1=C(O)CC(C)(C)CC1=O returned CapD inh 5.1 and AID504770 0.
Screening COc1ccc(-c2cnn(Cc3cccc(C(F)(F)F)c3)c2)cc1 returned CapD inh -0.5.
Screening CS(=O)(=O)N1CCc2cc(C(=O)CSc3nc4ccccc4o3)ccc21 returned AID504770 0.15.
CN(CC(=O)N1CCCC1)S(=O)(=O)c1ccc(F)cc1 was read as CapD inh 0.02 and AID504770 -0.6.
`O=C(CSC1=N/C(=C/c2ccco2)C(=O)N1c1ccccc1)Nc1nc2ccccc2s1` gave CapD inh -0.51 and AID504770 -0.25.
`COc1ccc(S(=O)(=O)N2CN(Cc3ccccc3)c3nc4ccccc4nc32)cc1` gave AID504770 -0.35.
Screening O=C(CSc1nccc(=O)[nH]1)Nc1ccccc1Br returned CapD inh 0.1 and AID504770 -0.6.
Screening COc1ccc(CCn2c(C)cc(O)cc2=O)cc1OC returned CapD inh -0.52 and AID504770 1.1.
`Cc1ccc(N(CC(=O)c2ccccc2)CC(=O)c2ccc(Cl)cc2)cc1` gave CapD inh 0.31 and AID504770 2.5.
`CCOC(=O)c1cc2sccc2n1CC(=O)c1ccc2c(c1)OCCO2` gave AID504770 1.2.
CC(C)OC(=O)c1cccc(C(=O)OC(C)C)n1 was read as CapD inh -0.17 and AID504770 0.05.
`CC(C)CCNC(=O)C1CC(=O)N(CCC(C)C)C1` (configuration not stated) gave CapD inh 0.29 and AID504770 -0.15.
For O=S(=O)(c1ccccc1)c1nc(Cc2ccccc2)oc1N1CCCCC1 the results were CapD inh -0.3.
Screening CCCN1CCC(NC(=O)Cc2ccc(C)cc2)CC1 returned CapD inh -0.65 and AID504770 0.7.
For Cc1cc(C)nc(N/N=C/C2=C(N3CCOCC3)C(=C\c3ccccc3)/CC2)n1 the results were AID504770 0.55.
For O=C(O)CCc1nnc2ccc(NCCCN3CCCC3=O)nn12 the results were CapD inh 0.015 and AID504770 -0.55.
Screening CS(=O)(=O)c1ccc(F)c(N2C(=O)CCC2=O)c1 returned CapD inh -0.45.
Screening N#Cc1c(N)[nH]c(=S)c(C(N)=O)c1-c1cccc(Br)c1 returned CapD inh -2.6 and AID504770 0.25.
CNC(=O)N(Cc1cccnc1)Cc1ccccc1Cl was read as CapD inh 0.18 and AID504770 0.05.
COc1cc(C(=O)NC(C)(C)CCO)cc(OC)c1OC was read as CapD inh 0.27 and AID504770 0.65.
CN(C)CCCNC1CS(=O)(=O)CC1O (configuration not stated) was read as AID504770 1.5.
O=C1CC(c2ccc(C(F)(F)F)cc2)c2ccc3ccccc3c2N1 (configuration not stated) was read as CapD inh 1.7.
`COCc1cc(C)nc(Cl)c1C#N` gave CapD inh -0.92 and AID504770 -0.4.
`O=C(c1cc2nc(-c3ccc(Br)cc3)cc(C(F)(F)F)n2n1)N1CCCC1` gave CapD inh -1.7.
Screening Cc1cc(=O)n(C)c(=O)n1CCCCCN1CCCC1 returned AID504770 -0.4.
Screening Cc1cccc(-n2c(SCCC#N)nnc2-c2ccc(Cl)cc2)c1 returned AID504770 0.35.
`O=C(c1cnc2sccn2c1=O)N1CCN(c2ccccc2)CC1` gave AID504770 0.95.
Screening COc1cccc(OCCOc2ccc(/C=C3/C(=O)N(c4ccccc4)N=C3C)cc2OC)c1 returned CapD inh 0.64.
O=C(Nc1cc(Cl)cc(Cl)c1)c1ccc(F)c(S(=O)(=O)N2CCN(c3ccccc3)CC2)c1 was read as CapD inh 0.095.
Cc1cc(S(=O)(=O)NC2CCCCC2)ccc1OCC(=O)NCc1cccnc1 was read as CapD inh -0.96 and AID504770 2.3.
CCCCOc1ccc(C2Oc3ccccc3C3CC(c4ccc(OC)cc4)=NN32)cc1 (configuration not stated) was read as CapD inh 0.12.
CSc1c(-c2ccccc2)nc2ccccc2c1C(=O)O was read as CapD inh -0.3 and AID504770 1.4.
`O=C(O)CCCCN1C(=O)c2ccccc2C1=O` gave AID504770 0.3.
OC(CSc1nncn1-c1ccccc1)C(O)C(O)c1cnn(-c2ccccc2)n1 (configuration not stated) was read as AID504770 0.6.
For Cc1[nH]c2ccccc2c1CCNCc1ccco1 the results were CapD inh -0.83 and AID504770 1.8.
For COc1ccc(NC(=O)C(C)Sc2ccccc2)cc1 (configuration not stated) the results were CapD inh 0.15 and AID504770 0.6.
`Cc1cccc2nc(=S)n(C(=O)c3ccc(F)cc3)n12` gave CapD inh 0.69 and AID504770 -0.05.
`Cc1cc(C(=O)CSc2nn3c(=O)c(C(C)(C)C)nnc3s2)c(C)n1C1CC1` gave AID504770 -0.5.
For O=C(Nc1sc2c(c1C(=O)O)CCC2)c1cccnc1 the results were AID504770 -0.25.
Screening Cc1ccc(S(=O)(=O)N2CC=C(c3ccccc3)CC2)cc1F returned CapD inh 0.25 and AID504770 0.5.
`O=C1C2C(C(=O)N1CC1CCCO1)C1C=CC2C12CC2` (configuration not stated) gave AID504770 -0.65.
`COc1ccc2c(c1)c1c(n2C(C)=O)C(OC(C)=O)=NCC1` gave CapD inh 5.7 and AID504770 -0.15.
Screening CC(C)Nc1ncnc2ccsc12 returned CapD inh -0.19 and AID504770 -0.1.
For CN(C1CCCCC1)S(=O)(=O)c1ccc(-c2cc(C(F)(F)F)no2)s1 the results were CapD inh 0.55 and AID504770 -1.1.
CCc1ccc(N2CC(c3nc4ccccc4[nH]3)CC2=O)cc1 (configuration not stated) was read as AID504770 0.5.
`COc1ccccc1NC(=O)C1CC1(c1ccc(C)cc1)c1ccc(C)cc1` (configuration not stated) gave CapD inh 0.34 and AID504770 0.1.
Screening CCCNC(=O)c1ccc(N2CC3CC(C2)c2cccc(=O)n2C3)c(NC(=O)Nc2ccc(Cl)cc2)c1 (configuration not stated) returned CapD inh -0.22 and AID504770 -0.05.
Screening OCCn1ncc2c(SC3CCCCC3)ncnc21 returned CapD inh -0.095 and AID504770 -0.3.
For COc1ccc(N2C(N)=C(C#N)C(c3ccc(N(C)C)cc3)C3=C2CC(C)(C)CC3=O)cc1 (configuration not stated) the results were CapD inh 0.53.
`O=C(OCc1ccc(C(F)(F)F)cc1F)N1CCN(Cc2ccccc2OCc2ccccc2)CC1` gave CapD inh 0.025.
`O=c1c(Cc2ccc(F)cc2)c(O)ccn1C(CO)Cc1ccccc1` (configuration not stated) gave CapD inh 0.31.
CCOC(=O)CSc1nc2c(sc3ccccc32)c(=O)n1CCCN1CCOCC1 was read as CapD inh 7.3 and AID504770 0.4.
For Cc1cc(C)c(CCOC(=O)NNC(=O)c2cccc(C)c2O)c(C)c1 the results were CapD inh 0.83.
`Cc1cc(C)n2nc(C(=O)O)nc2n1` gave AID504770 0.75.
`O=C(O)c1cc(N=Cc2ccccc2O)ccc1O` gave CapD inh 1.8 and AID504770 1.1.
`O=C(OCc1cn2ccccc2n1)c1ccc2c(c1)C(=O)N(Cc1ccco1)C2=O` gave AID504770 0.3.
For NCc1oc(-c2ccccc2)cc1C(=O)O the results were AID504770 1.3.
`NCC1CCCN(Cc2ccccc2)C1` (configuration not stated) gave AID504770 -0.35.
For Cc1ccccc1OCCn1c(C2CCCO2)nc2ccccc21 (configuration not stated) the results were CapD inh 0.29 and AID504770 0.15.
Screening Cn1nc(-c2ccc(Cl)cc2)cc1N returned CapD inh 2.3.
For CCOc1cc(/C=C2/SC(=Nc3ccccc3)NC2=O)ccc1OCC(=O)O the results were CapD inh 0.64.
For C[C@H](NC(N)=O)C(=O)NC1CCCc2ccccc21 (some centres not stated) the results were AID504770 -0.15.
For NS(=O)(=O)c1ccc(CCNC2=CC(=O)OC23CCCCC3)cc1 the results were CapD inh -0.26 and AID504770 0.15.
Screening Cc1nn(-c2ccccc2)c2sc(C(=O)N=Nc3c(O)[nH]c4ccccc34)cc12 returned AID504770 -0.55.
CSc1nn(-c2ccccc2)cc1-c1noc(-c2ccc(C(F)(F)F)cc2)n1 was read as CapD inh 0.6 and AID504770 -0.5.
For CCOC(=O)N1CCN(S(=O)(=O)c2ccc(C(=O)Nc3ccc(-c4nc5ccccc5o4)cc3)cc2)CC1 the results were CapD inh 0.24.
For CCOC(=O)N1CCN=C1SCc1cc(C)ccc1C the results were AID504770 1.1.
Cc1cc(-c2nc(COc3ccc(Cl)cc3Cl)no2)no1 was read as CapD inh -0.33 and AID504770 2.9.
`CC(NC(=O)c1ccc2c(c1)OCCO2)C(=O)O` (configuration not stated) gave CapD inh 0.52.
`Cc1cc(-c2ccccc2)nc2cc(C(=O)N3CCCCCC3)nn12` gave AID504770 0.25.
`CC(C)(C)C(=O)Nc1ccccc1C(=O)N1CCN(Cc2ccccc2)CC1` gave CapD inh 0.43 and AID504770 0.6.

Reprinted at random: 7 records from the list.
CSc1nn(-c2ccccc2)cc1-c1noc(-c2ccc(C(F)(F)F)cc2)n1 was read as CapD inh 0.6 and AID504770 -0.5.
`CC(NC(=O)c1ccc2c(c1)OCCO2)C(=O)O` (configuration not stated) gave CapD inh 0.52.
`CC(C)(C)C(=O)Nc1ccccc1C(=O)N1CCN(Cc2ccccc2)CC1` gave CapD inh 0.43 and AID504770 0.6.
For NS(=O)(=O)c1ccc(CCNC2=CC(=O)OC23CCCCC3)cc1 the results were CapD inh -0.26 and AID504770 0.15.
For CCOC(=O)N1CCN(S(=O)(=O)c2ccc(C(=O)Nc3ccc(-c4nc5ccccc5o4)cc3)cc2)CC1 the results were CapD inh 0.24.
For C[C@H](NC(N)=O)C(=O)NC1CCCc2ccccc21 (some centres not stated) the results were AID504770 -0.15.
Screening Cc1nn(-c2ccccc2)c2sc(C(=O)N=Nc3c(O)[nH]c4ccccc34)cc12 returned AID504770 -0.55.

Molecules listed so far that contain a cyano group, in the order listed:
N#CCC(=O)NNC(=S)NCC1CCCO1 (configuration not stated) was read as CapD inh -0.57.
Screening N#Cc1c(N)[nH]c(=S)c(C(N)=O)c1-c1cccc(Br)c1 returned CapD inh -2.6 and AID504770 0.25.
`COCc1cc(C)nc(Cl)c1C#N` gave CapD inh -0.92 and AID504770 -0.4.
Screening Cc1cccc(-n2c(SCCC#N)nnc2-c2ccc(Cl)cc2)c1 returned AID504770 0.35.
For COc1ccc(N2C(N)=C(C#N)C(c3ccc(N(C)C)cc3)C3=C2CC(C)(C)CC3=O)cc1 (configuration not stated) the results were CapD inh 0.53.

Back to the main list; the two compounds before the break are reprinted first.
`Cc1cc(-c2ccccc2)nc2cc(C(=O)N3CCCCCC3)nn12` gave AID504770 0.25.
`CC(C)(C)C(=O)Nc1ccccc1C(=O)N1CCN(Cc2ccccc2)CC1` gave CapD inh 0.43 and AID504770 0.6.
O=C(O)c1c[nH]ccc1=O was read as CapD inh 0.045 and AID504770 0.3.
`O=C(c1ccc2c(c1)N(Cc1ccccc1)CCS2)N1CCOCC1` gave CapD inh 48 and AID504770 -0.25.
`C/C(=N\NC(=S)Nc1cccc(C(F)(F)F)c1)c1cc(Cl)cc(Cl)c1O` gave CapD inh -0.28.
Screening Cc1cc(NC(C)C)n2nc(-c3ccccc3)nc2n1 returned CapD inh -0.57 and AID504770 2.
`CC(C)c1ccc(OC(=O)CN2C(=O)c3ccccc3C2=O)cc1` gave AID504770 -0.35.
For COc1ccc(C(CN=Cc2c(O)[nH]c(=S)[nH]c2=O)N(C)C)cc1 (configuration not stated) the results were AID504770 1.6.
CCOC(=O)c1c(C)[nH]c(C)c1C(=O)CC#N was read as CapD inh 0.015 and AID504770 0.
For CC1(C)COC(Nc2cccc(Cl)c2)=N1 the results were CapD inh 0.43 and AID504770 1.5.
N#CC1=C(SCC(N)=O)NC(O)(C(F)(F)F)C(C(=O)c2cccs2)C1c1ccc(F)cc1 (configuration not stated) was read as CapD inh 0.08 and AID504770 0.45.
`CCN(CC)C(=O)c1ccc(NC(=O)c2ccccc2)cc1` gave CapD inh 0.46 and AID504770 -0.05.
For O=C(/C=N/O)Nc1cc(Cl)ccc1Cl the results were CapD inh -0.27.
`O=C(OCc1ccc([N+](=O)[O-])cc1)C1CCCN1C(=O)OCc1ccc(OC(F)(F)F)cc1` (configuration not stated) gave CapD inh -0.69.
`CC(=O)Nc1ccc2c(c1)COCO2` gave CapD inh -0.53 and AID504770 1.1.
Brc1ccc2nc(SCc3nc4ccccc4[nH]3)[nH]c2c1 was read as CapD inh 0.43.
`CN(C)/C=C/C(=O)c1sc(SCc2ccc(Cl)cc2)c2c1CC(C)(C)CC2=O` gave CapD inh -0.97 and AID504770 -0.05.
`O=C(NCCC1=CCCCC1)c1ccc(N2CC3CC(C2)c2cccc(=O)n2C3)c(NC(=O)c2ccccc2Cl)c1` (configuration not stated) gave CapD inh -0.3.
`CSc1nc(-c2ccccc2)cc(-c2cccs2)c1C#N` gave CapD inh -0.095 and AID504770 -0.1.
